Cruzain Triton: cruzain (T. cruzi) inhibition with detergent. 200,000 tested, 0.43% active. AID 1478. Potency, µM, inactives show max response, negative = inhibition, most hits filed as inhibitors. purified cruzain, Z-FR-AMC fluorescence, 0.01% Triton; active means well fitted curve in the direction sought with a large enough effect; inconclusive means small, poorly fitted or top-dose-only effect, or another doubt; inactive means no such curve, though single readings can be large; an effect the other way counts as inactive or inconclusive;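 further: plate controls were neutral wells for no effect and buffer without enzyme for full effect; nearly all actives have a fitted effect of over 40% in size; top concentration of the series not given in the record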
Target sequence (P25779 123-467 limits assumed): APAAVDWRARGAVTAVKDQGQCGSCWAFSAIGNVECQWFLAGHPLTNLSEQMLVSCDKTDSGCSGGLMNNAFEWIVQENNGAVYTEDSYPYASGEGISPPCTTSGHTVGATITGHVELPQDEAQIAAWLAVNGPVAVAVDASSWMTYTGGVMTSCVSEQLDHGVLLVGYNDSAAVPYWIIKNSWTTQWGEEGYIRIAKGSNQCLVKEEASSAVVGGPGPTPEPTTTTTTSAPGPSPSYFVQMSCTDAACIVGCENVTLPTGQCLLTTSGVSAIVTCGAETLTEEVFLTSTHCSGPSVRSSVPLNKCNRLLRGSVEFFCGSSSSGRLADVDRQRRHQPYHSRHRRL
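Cruzain (1.5 nM) preincubated 15 min at RT with compound in 100 mM sodium acetate pH 5.5, 5 mM DTT, 0.01% Triton X-100. Reaction started with 2 uM Z-FR-AMC; AMC fluorescence (ex 360/em 450 nm) change over 60 s gave rate.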
Marburg entry inh: inhibitors of Marburg virus binding or cell entry | Marburg virus pseudotyped entry inhibition, cell reporter; control for the full effect not named in the record; about a third of the inactives were read at about 46 µM | Potency, µM (doses to about 37.8 µM), without a hit: at the highest dose activity change, negative = inhibition, hits mostly inhibitors | 300,000 tested, 1.8% active | AID 540276; active = well fitted inhibition curve with a large enough effect; inconclusive = small, poorly fitted or top-dose-only effect, or effect the other way; inactive = flat fitted curve, though single readings scatter; tested in HEK293 cells; about a fifth of its hits are not listed in these tables; further: on the % scale 0 is the no-effect control and ±100 the full control effect; luciferase read-out
SARS PLP yeast: blocks SARS-CoV papain-like protease in a yeast assay. S. cerevisiae expressing SARS-CoV PLpro, growth rescue; control for the full effect not named in the record. Potency, µM (doses to about 32.9 µM), for the others: at the highest dose activity, positive = growth rescue. 330,000 tested, 0.19% active. AID 485353; further: 0% is about no effect; nearly all actives have a fitted effect of over 55% in size; growth read by luminescence after 48 h
NS1 inh: inhibitors of influenza NS1 protein function; S. cerevisiae slowed by influenza A NS1, growth recovery by OD600; AID 2326; Potency, µM (series often up to 46.1 µM), inactives show at the highest dose activity, positive = more growth; 270,000 tested, 0.4% active; further: actives are rising curves; nearly all actives have a fitted effect of over 50% in size
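Compounds were scored for reversing the slow growth caused by influenza A NS1 in S. cerevisiae, measured by optical density at 600 nm. Assay medium contained 2% galactose at pH 6.0; NS1-free yeast of the same strain were the positive control.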
Cruzain inh noDet: cruzain (T. cruzi) inhibition without detergent; purified cruzain, Z-FR-AMC fluorescence, no detergent; AID 1476; P25779; 200,000 tested, 2.3% active; Potency, µM, inactives show max response, negative = inhibition, most hits filed as inhibitors; active means well fitted curve in the direction sought with a large enough effect; inconclusive means small, poorly fitted or top-dose-only effect, or another doubt; inactive means no such curve, though single readings can be large; an effect the other way counts as inactive or inconclusive;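 further: plate controls were enzyme without inhibitor for no effect and buffer without enzyme for full effect; nearly all actives have a fitted effect of over 40% in size; top concentration of the series not given in the record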
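Detergent-free condition (0.00005% Triton X-100) in acetate buffer pH 5.5 with DTT. 1.5 nM enzyme and compound were pre-mixed 15 min, then 2 uM Z-FR-AMC substrate added; reaction progress from fluorescence change between first and third reads (60 s).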
2A StopGo: FMDV 2A StopGo reporter, luciferase signal | Potency, µM (highest dose often 57.9 µM), inactives show at the highest dose signal change, negative = less light | human cells with a luciferase reporter of 2A StopGo recoding; control for the full effect not named in the record | 410,000 tested, 1.2% active; active = well fitted falling curve with a large enough effect; inconclusive = small, poorly fitted or top-dose-only effect; inactive = no such curve, though single readings can be large or run the other way; tested in HEK293T cells; further: on the % scale 0 is the no-effect control and ±100 the full control effect; nearly all actives have a fitted effect of over 45% in size; luciferase light after 4 h
RE007 growth inh: less growth of the S. pombe RE007 Vpr strain; Potency, µM (series often up to 92.2 µM), for inactives: top-dose activity change, negative = less growth; S. pombe RE007 Vpr strain, BacTiter-Glo ATP luminescence, 24 h; control for the full effect not named in the record; 360,000 tested, 0.21% active; active = well fitted falling curve with a large enough effect; inconclusive = small, poorly fitted or top-dose-only effect; inactive = no such curve, though single readings can be large or run the other way;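 further: on the % scale 0 is the no-effect control and ±100 the full control effect; nearly all actives have a fitted effect of over 50% in size; the assay follows cell death caused by Vpr and the record does not say whether a fall means rescue or toxicity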
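Fission yeast strain RE007, carrying one chromosomally integrated HIV-1 vpr copy, was seeded at OD 0.01 in PMG+AL medium with 23 nL pinned compound. After 24 h at 30 °C and 99% humidity, viability was read by BacTiter-Glo luminescence.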
LASV entry inh: Lassa virus entry inhibition; Lassa virus pseudotype entry inhibition, cell reporter; control for the full effect not named in the record; Potency, µM (titrated, usually from 37.9 µM), for the others: top-dose activity change, negative = inhibition, hits mostly inhibitors; 300,000 tested, 1.2% active; active means well fitted inhibition curve with a large enough effect; inconclusive means small, poorly fitted or top-dose-only effect, or effect the other way; inactive means flat fitted curve, though single readings scatter; tested in HEK293 cells; further: on the % scale 0 is the no-effect control and ±100 the full control effect; nearly all actives have a fitted effect of over 50% in size; luciferase read-out
An asterisk follows results filed as active; ? = inconclusive; nt = no result given; & = joins results of further samples; [ ] = remark or other dose. Unless noted, the call rests on the fitted dose curve; in most records, active means well fitted rising curve with a large enough effect; inconclusive means small, poorly fitted or top-dose-only effect; inactive means no such curve, though single readings can be large or run the other way. Potency means the concentration at half of the fitted maximal effect.

canonical_smiles	NS1 inh	RE007 growth inh	Cruzain inh noDet	Marburg entry inh	SARS PLP yeast	Cruzain Triton	LASV entry inh	2A StopGo
COc1ccc(N2CCN(CCC(O)c3ccc4ccccc4c3)CC2)cc1 (configuration not stated)	0%	-10%	nt	nt	1%	nt	nt	-19%
O=C(c1cc(-c2ccccn2)nc2ccc(Br)cc12)N1CCN(S(=O)(=O)c2ccccc2)CC1	4%	2%	nt	10%[46.1 µM]	1%	nt	1%[46.1 µM]	-21%
Cc1ccc(S(=O)(=O)Nc2ccc(C(=O)N3CCCC3)cc2)c(C)c1NS(C)(=O)=O	-12%	-6%	nt	8%[46.1 µM]	-3%	nt	7%[46.1 µM]	-2%
CCN1C(=C2C(=O)c3ccccc3C2=O)C=Cc2ccccc21	-6%	11%	-5%	26%	-6%	-7.7%	40%	22%
CC(C)CCNC(=O)C(=O)NCCC1=CCCCC1	-4%	8%	-22%	5%	6%	-3.9%	2%	0%
N#C/C(=C\c1c(N2CCOCC2)nc2ccccn2c1=O)C(=O)NC1CCS(=O)(=O)C1 (configuration not stated)	1%	12%	nt	-18%	1%	nt	11%	-11%
O=C(Nc1nc2cc3c(cc2s1)OCCO3)c1ccncc1	2%	-24%	nt	?	-6%	nt	?	-16%
CCOC(=O)c1c(C)[nH]c(C(=O)OC)c1CCC(=O)OC	-51%	-2%	4%	12%	-4%	4.1%	2%	-18%
Cc1n[nH]c(C)c1S(=O)(=O)N1CCC(C(=O)O)CC1	?	-6%	7%	?	0%	7.3%	11%	-17%
COc1ccc(NC(=O)c2nnn(CC(=O)Nc3ccc(C)c(C)c3)c2N)cc1OC	nt	nt	29%	nt	nt	-6.4%	19%[46.1 µM]	-26%
Cc1ccccc1NC(=O)N1C2CCCC1CC(NC(=O)C(C)(C)C)C2 (configuration not stated)	-1%	-10%	-3%	?	5%	5.7%	6%	8%
Cc1c(C(=O)O)oc2ccc(S(=O)(=O)N3CCCC3)cc12	9%	-3%	nt	nt	8%	nt	nt	-11%
N[C@]1(C(=O)O)CCc2cc(C(=O)O)ccc21	nt	nt	-7%	23%&23%	nt	-3.2%	nt	8%
COc1ccc(NC(=S)NC2CCCCC2)c(OC)c1	nt	7%	nt	2%[46.1 µM]	5%	nt	3%	40%[activator]
CC(NC(=O)c1ccc2c(c1)C(=O)N(Cc1cccnc1)C2=O)c1ccccc1 (configuration not stated)	-20%	7%	nt	22%	-8%	nt	18%	-16%
COc1ccc(CNC(=O)C2CCN(C(=O)Cc3ccccc3)CC2)cc1	-3%	1%	nt	14%[46.1 µM]	1%	nt	-15%[46.1 µM]	22%
CC(C)(C)c1ccc(O)c(O)c1	nt	-2%	-5%	nt	-3%	0.2%	nt	-21%
COc1ccc(/C=C/C(=O)NC(C)CCc2ccccc2)cc1OC (configuration not stated)	-7%	-8%	nt	-2%	-1%	nt	-19%	-18%
Cc1ccc2nc(C)c(C(=O)N/N=C/c3ccc(N4CCOCC4)cc3)cc2c1	7%	4%	-1%	?	8%	-8.6%	-11%	-24%
COc1ccccc1CNC(=O)CS(=O)Cc1nc(-c2ccccc2C)oc1C (configuration not stated)	5%	-9%	15%	nt	-1%	-13%	nt	-3%
COc1cccc(-c2nc(-c3ccc4c(c3)NC(=O)CO4)cs2)c1	nt	-20%	nt	?	-3%	nt	13%	-15%
CS(=O)(=O)N(CC(=O)NCc1ccco1)c1ccc(OCc2ccccc2)cc1	-1%	14%	nt	-2%	0%	nt	?	-1%
Cn1c(/N=C/c2ccccc2[N+](=O)[O-])nc2ccccc21	2%	-17%	nt	nt	0%	nt	nt	-2%
Cn1nccc1NS(=O)(=O)c1ccc(F)cc1	3%	-10%	nt	-4%[14.2 µM]	0%	nt	16%	-5%
N#Cc1ccc(CSc2ccc(S(=O)(=O)N3CCCCCC3)cn2)cc1	nt	-13%	nt	?	-4%	nt	?	-27%
COc1ccc(/C=C/C(=O)c2ccc(O)cc2)cc1CN1CCOCC1	-3%	-3%	3%	?	25%	2.9%	?	?
Cc1ccc(Cl)cc1NS(=O)(=O)c1cc2c3c(c1)CC(=O)N3CCC2	nt	nt	-4%	nt	nt	-2.9%	-5%[46.1 µM]	27%
CCCCOc1ccc(C(=O)NCC(=O)OCC(=O)N2CCN(S(=O)(=O)c3ccc(C)cc3C)CC2)cc1	?	5%	?	-1%	-12%	-8.5%	1%	-21%
CC(=O)Nc1cccc(C(=O)OCC(=O)NCc2ccc(F)cc2)c1	nt	-10%	nt	-4%	0%	nt	-2%	-1%
CCCN(CCC)c1cc(C)nc2nc(-c3ccc(C(C)(C)C)cc3)nn12	nt	nt	1%	1%[46.1 µM]	nt	3.7%	16%[46.1 µM]	9%
COc1cccc(-n2nc(C(=O)O)c3ccccc3c2=O)c1	-3%	1%	-5%	-6%	-1%	0.3%	2%	nt
CC(C)N(C(=O)COC(=O)[C@H](C)NC(N)=O)c1ccccc1	4%	-6%	nt	5%	-1%	nt	0%	-3%
O=C(/C=C/c1ccc(N2CCC(c3ccccc3)=N2)cc1)c1ccccc1	nt	-7%	nt	3%	-1%	nt	-9%	18%
O=C(NCC(c1ccco1)N1CCCCC1)c1cccc(S(=O)(=O)Nc2ccc(F)cc2)c1 (configuration not stated)	nt	1%	nt	?	-1%	nt	-11%	41%[activator]
O=C1C(Cl)=C(NCCc2ccccc2)C(=O)c2ccccc21	nt	6.3µM*	nt	?	nt	nt	?	-17%
CC1CN(C(=O)c2cccs2)CCN1C(=O)c1cccs1 (configuration not stated)	2%	-24%	0%	-2%	1%	1.9%	-17%	11%
Cc1ccnc(N/C=C(\C#N)c2nc(-c3cccc(Br)c3)cs2)c1	11%	-18%	25µM*	?	-10%	?	?	-10%
Cc1ccc(C)c(NC(=O)C2CCCN(S(=O)(=O)c3ccc4[nH]c(=O)ccc4c3)C2)c1 (configuration not stated)	4%	7%	7%	nt	-1%	0.3%	-20%[46.1 µM]	-18%&-9%
CC(C)C(C(=O)NCC1CCCO1)N(Cc1ccco1)C(=O)CNS(=O)(=O)c1ccccc1 (configuration not stated)	-2%	?	12%	8%&8%	-3%	3.6%	-15%	-5%
C=CCc1cc(Cl)ccc1OCCCNC(C)CC (configuration not stated)	-24%	nt	-10%	2.9µM*	-11%	-2.8%	?	?
Cn1c(=O)n(CCc2ccccc2)c(=O)c2c1nc1n2CCCN1c1ccccc1	0%	-1%	4%	1%	12%	-3.7%	-8%	nt
Cn1cc(CN2CCN(c3cnccn3)CC2)c(-c2cccc(Cl)c2)n1	1%	4%	nt	?	0%	nt	?	-2%
c1ccc2c(OCCCN3CCCCCC3)cccc2c1	-4%	-8%	nt	nt	-8%	nt	nt	-27%
Cc1ccc(C)n1-c1cccc(C(=O)O)c1	18%	nt	?	1%	5%	-8.0%	nt	nt
CCN(CC)CCNC(=O)Cn1cnc2sc(C)c(S(=O)(=O)N3CC(C)CC(C)C3)c2c1=O (configuration not stated)	-15%	3%	nt	-2%[46.1 µM]	-3%	nt	15%[46.1 µM]	-7%
O=C(NC(Cc1ccccc1)C(=O)N1CCCC1C(=O)O)c1ccccc1 (configuration not stated)	4%	13%	-10%	7%	?	-0.5%	15%	-2%
CC1=NN(C(=O)c2csc(C)c2)C(O)(C(F)(F)F)C1 (configuration not stated)	-3%	-1%	1%	13%	3%	5.1%	11%	2%
CN(C)CCN(C(=O)/C=C/c1cccs1)c1nc2c(F)cc(F)cc2s1	5%	-10%	-4%	?	-24%	-16%	?	-25%
OCC1(CO)CCCC(CO)(CO)C1O	nt	1%	nt	0%[46.1 µM]	nt	nt	1%[46.1 µM]	-1%
CC(CC(=O)Nc1cc(C(F)(F)F)ccc1Cl)c1ccccc1 (configuration not stated)	-11%	-5%	-3%	?	-18%	-2.4%	-8%	-18%
Cc1ccccc1C(=O)O/N=C(\N)c1ccncc1	-18%	-5%	13%	?	6%	-0.9%	?	-12%
Oc1c(C(c2cccs2)N2CCN(c3cccc(Cl)c3)CC2)sc2ncnn12 (configuration not stated)	-12%	3%	?	nt	-1%	-10%	nt	-18%
CC(=O)N1CC2(C)CN(C(C)=O)CC(C)(C1)C2O (configuration not stated)	-8%[9.22 µM]	24%	0%	-10%	5%	6.2%	-3%	10%
CCN(CC)CCCNc1oc(/C=C/c2ccccc2)nc1C#N	1%	9%	nt	nt	-2%	nt	nt	18%
CC(=O)Oc1ccc(-c2csc(Nc3cccc(C)n3)n2)cc1	2%	-14%	nt	?	-7%	nt	?	45%[activator]
Cc1ccc(S(=O)(=O)N2CCC(C(=O)Nc3ccccc3N3CCCC3)CC2)cc1C	nt	25%	nt	-8%	0%	nt	?	-10%
Clc1nc(Cl)nc(NCCC2=CCCCC2)n1	nt	7%	nt	5%[46.1 µM]	2%	nt	2%[46.1 µM]	-1%
Cc1cc([N+](=O)[O-])nn1CC(=O)N/N=C/c1ccc(O)cc1O	0%	3%	nt	nt	19%	nt	nt	-10%
CCOC(=O)c1ccc(CC(=O)c2oc3cc(O)ccc3c2C)o1	-54%	36%	-19%	29%	-5%	-20%	-12%	nt
C[N+](C)(C)CCN1C(=O)CSC1=O	1%	6%	nt	7%[46.1 µM]	0%	nt	5%	1%
CCOc1cc2[nH]c(=O)n(CCCCC(=O)N3CCN(c4ccccc4OC)CC3)c(=O)c2cc1OCC	nt	nt	-4%	nt	nt	1.7%	2%[46.1 µM]	-12%
CCOc1ccc(NC(=O)Cn2nnc(C(=O)NCCc3ccc(OC)c(OC)c3)c2N)cc1	5%	3%	?	-20%[46.1 µM]	-5%	1.5%	-7%	-15%
O=C(Nn1c(-c2ccccc2)nc2ccccc2c1=O)c1ccco1	0%	4%	1%	12%	4%	-0.7%	21%	-15%

From PubChem
